KCNQ2 inh = KCNQ2 channel blockers in CHO-K1 cells – cell-based, FluxOR thallium flux, B-score, primary screen (AID 2156); O88943; 20 min; active compounds read low; only compounds with negative scores are shown here; some inactives read as strong as hits; B-score at 10 µM; 310,000 compounds, 1.1% hits;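 active = fluorescence ratio B-score at most minus 3 library SDs, with starting brightness B-score within 2 library SDs, cut at about -5.5 in these data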
Target sequence (O88943 whole entry, looked up): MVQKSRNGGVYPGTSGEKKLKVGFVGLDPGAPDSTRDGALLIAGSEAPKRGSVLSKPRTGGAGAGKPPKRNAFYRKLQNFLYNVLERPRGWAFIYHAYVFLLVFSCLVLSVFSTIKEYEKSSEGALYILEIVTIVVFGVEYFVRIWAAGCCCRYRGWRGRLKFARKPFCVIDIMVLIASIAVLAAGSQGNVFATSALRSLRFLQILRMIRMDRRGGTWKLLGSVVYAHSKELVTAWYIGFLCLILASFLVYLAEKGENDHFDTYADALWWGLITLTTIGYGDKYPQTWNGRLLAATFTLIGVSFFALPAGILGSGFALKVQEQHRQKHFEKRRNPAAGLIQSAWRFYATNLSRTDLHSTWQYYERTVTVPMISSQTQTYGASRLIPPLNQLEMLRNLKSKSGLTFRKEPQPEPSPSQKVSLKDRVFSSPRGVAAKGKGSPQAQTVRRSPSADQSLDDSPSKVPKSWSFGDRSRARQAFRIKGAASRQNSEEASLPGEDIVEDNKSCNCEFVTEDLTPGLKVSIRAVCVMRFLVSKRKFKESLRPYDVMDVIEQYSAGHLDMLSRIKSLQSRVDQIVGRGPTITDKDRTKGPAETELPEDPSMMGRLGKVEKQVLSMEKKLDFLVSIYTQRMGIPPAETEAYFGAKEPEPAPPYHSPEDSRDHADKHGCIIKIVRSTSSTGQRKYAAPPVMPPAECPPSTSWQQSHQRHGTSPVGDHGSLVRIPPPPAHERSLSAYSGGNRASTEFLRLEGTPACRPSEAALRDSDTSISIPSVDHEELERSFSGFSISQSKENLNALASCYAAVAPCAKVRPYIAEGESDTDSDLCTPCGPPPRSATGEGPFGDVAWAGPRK
KCNQ2 inh baseline = recorded beside KCNQ2 inh, whose call it bears; B-score; measured here: initial fluorescence intensity artifact check;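 brightness before thallium and not channel activity; 0 = typical well and far values either way flag optical interference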
* hit, by the source's call; i = inactive. Some of the compounds tested (hit frequency here may not be typical).

A first look, 5 compounds:
SMILES,KCNQ2 inh,KCNQ2 inh baseline
O=C(c1cccc(-n2cccc2)c1)N1CCN(S(=O)(=O)c2c(F)cccc2F)CC1,i,0.32
COc1ccc(C(=O)Nc2ccc(NC(=O)c3ccccc3OC)nc2)cc1,i,-0.58
O=C(OCc1ccccn1)C1CCN(C(=O)c2ccc(Cl)cc2)CC1,i,0.02
CC1=CC(C)(C)N(C(=O)c2ccccc2)c2ccccc21,-5.6*,-0.78*
CN(C)Cc1nc2ccccc2c(=O)n1Cc1nc(-c2cc3ccccc3o2)cs1,i,-0.02

The list itself, from the start:
SMILES,KCNQ2 inh,KCNQ2 inh baseline
O=C(c1cccc(-n2cccc2)c1)N1CCN(S(=O)(=O)c2c(F)cccc2F)CC1,i,0.32
COc1ccc(C(=O)Nc2ccc(NC(=O)c3ccccc3OC)nc2)cc1,i,-0.58
O=C(OCc1ccccn1)C1CCN(C(=O)c2ccc(Cl)cc2)CC1,i,0.02
CC1=CC(C)(C)N(C(=O)c2ccccc2)c2ccccc21,-5.6*,-0.78*
CN(C)Cc1nc2ccccc2c(=O)n1Cc1nc(-c2cc3ccccc3o2)cs1,i,-0.02
Cc1ccc(CN2CC(C(=O)N3CCN(S(=O)(=O)c4ccc(C(C)C)cc4)CC3)CC2=O)cc1 (stereo not given),i,-0.73
Cc1ccc(/C=N/NC(=O)Cn2nc(C)c([N+](=O)[O-])c2C)o1,i,-0.6
Cc1c(N2C(=O)/C(=C3/C(=O)N(C)c4ccccc43)SC2=S)c(=O)n(-c2ccccc2)n1C,i,0.43
CN1C[C@@H]2C(c3ccccc3)C3(c4ccccc4)CC2(C3)[C@H]1c1ccccc1 (stereo not given in full),i,0.3
O=C(c1ccccc1[N+](=O)[O-])N1CCN(c2ccc(N3CCOCC3)nn2)CC1,i,-0.64

2 of the compounds above, with each value named.
CN(C)Cc1nc2ccccc2c(=O)n1Cc1nc(-c2cc3ccccc3o2)cs1
  KCNQ2 inh = i	KCNQ2 inh baseline = -0.02

O=C(OCc1ccccn1)C1CCN(C(=O)c2ccc(Cl)cc2)CC1
  KCNQ2 inh = i	KCNQ2 inh baseline = 0.02

(more compounds)
SMILES,KCNQ2 inh,KCNQ2 inh baseline
O=C(CCS(=O)(=O)c1ccccc1)Nc1nc(-c2cccs2)cs1,i,-0.71
Cc1cc(NC(=O)CSc2nnnn2-c2cc(Cl)ccc2C)no1,i,-0.69
COC(=O)C1=C(C(=O)OC)[C@@H]2N(Cc3ccccc3)c3ccccc3[C@@]23C[C@@H](C(=O)OC)N(C(=O)c2ccc(Br)cc2)C3=N1,i,2
COc1cc(C(=O)Nc2ccc3c(c2)CCN3C(C)=O)cc(OC)c1OC,i,-0.11
CCc1nc(SCC(=O)NCCc2ccccc2)c2oc3ccccc3c2n1,i,-1.4
Cc1noc(C)c1S(=O)(=O)Nc1ccc(C(=O)Nc2ccc(OC(F)(F)F)cc2)cc1,i,0.45
CCCn1ncc(CN2CCC(CO)(CC3CCCCO3)CC2)c1C (stereo not given),i,1.9
CCc1cc(=O)oc2cc(C)cc(OCC(=O)NCCCn3ccnc3)c12,i,-0.13
CS(=O)(=O)N(CCC#N)Cc1ccc(C=O)o1,i,-0.05
CC(C)(C)NCc1ccccc1OCc1cccs1,i,-0.05

(list continues)
SMILES,KCNQ2 inh,KCNQ2 inh baseline
Cc1cc(C(=O)OC(C)C(=O)NC2CCCCC2C)c(C)o1 (stereo not given),i,-2
O=C(O)c1ccccc1C(=O)OCCCCOC(=O)c1ccccc1C(=O)O,i,2
COc1ccc(CN2C(=O)c3ccccc3C2C(=O)NC2CCCC2)c(OC)c1 (stereo not given),i,-1.3
O=C(Cn1cnc2c(nnn2-c2ccccc2)c1=O)NCc1ccc(F)cc1,i,0.79
O=C(N=C1SC2CS(=O)(=O)CC2N1c1ccc(Br)cc1Cl)C1CC1 (stereo not given),i,-0.91
Cc1nc2ccc(F)cc2cc1C(=O)Nc1cccc(Cl)c1C,i,1.2
CC1CCCCC1NC(=O)CCNS(=O)(=O)c1cc(Br)cnc1N (stereo not given),i,-0.21
O=C(c1cc(-c2ccco2)on1)N1CCCc2ccccc21,i,-0.38
O=C(Nc1ccccc1N1CCN(c2ccccc2)CC1)C1CCCCC1,i,1.2
CCCc1c(C(=O)N/N=C/c2ccccc2OCc2ccc(F)cc2)nnn1-c1nonc1N,i,3.5

The list continues.
SMILES,KCNQ2 inh,KCNQ2 inh baseline
COC(=O)c1cc(S(=O)(=O)N2CCC(C(N)=O)CC2)oc1C,i,0.44
CCCN1CCN(C(=O)Nc2ccc(OCC)cc2)CC1,i,-0.37
COc1ccccc1N1CCN(S(=O)(=O)c2cc(-c3cc(C)no3)ccc2C(C)C)CC1,-6*,-1.2*
O=C(O)C(c1ccccc1)C1(O)CCCCC1 (stereo not given),i,-0.91
Cc1noc(C)c1COC(=O)/C=C/c1ccccc1Cl,i,0.49
O=C(c1cc2nc(-c3ccccc3)cc(-c3ccccc3)n2n1)N1CCCC1,i,1
O=C1OCC/C1=C\c1ccc(O)cc1,i,-0.48
Cc1ccccc1OCC(=O)N/N=C/c1ccc(Sc2nc3ccccc3s2)o1,i,-0.58
CS(=O)(=O)Nc1nc2n(n1)C(c1ccc(F)cc1)CC(c1ccccc1)N2 (stereo not given),i,-0.8
COc1ccc(CNC(=O)CN(Cc2ccc(OC)cc2)C(=O)c2csnn2)cc1,i,1.7

Other entries.
SMILES,KCNQ2 inh,KCNQ2 inh baseline
c1ccc(-c2ccc(C3CCCN3)cc2)cc1 (stereo not given),i,-0.16
CC(C)(C)C(=O)/C=C/c1ccc(Oc2ccccc2)cc1,i,0.05
CC1CN(C(c2cccs2)c2sc3ncnn3c2O)CC(C)O1 (stereo not given),i,0.41
Cc1ccc(S(=O)(=O)C2(C(=O)N3CCN(c4ccccc4F)CC3)CC2)cc1,i,0.16
CCOc1ncccc1C(=O)N=C1SCCN1C(=O)c1cccnc1OCC,i,-0.16
CCOc1ccc2nc(N3CCC(C(=O)NCCCN4CCOCC4)CC3)sc2c1,i,-0.52
O=C(COc1ccccc1[N+](=O)[O-])Nc1cccc(Cl)c1N1CCOCC1,i,-1.4
CCc1ccc(CSc2nccn2-c2ccccc2)cc1,i,-1.7
COC(=O)C(C)Oc1ccc(Oc2nc(Cl)ccc2Cl)cc1 (stereo not given),i,0.06
Cc1nc2nc(-c3ccc(F)cc3)cn2nc1C,i,0.05

(more compounds)
SMILES,KCNQ2 inh,KCNQ2 inh baseline
CCCOC1(NC(=O)c2ccccc2)C(C)=CC(=O)C=C1C,i,0.71
CC(C)CN(C(=O)c1cccs1)C1CCS(=O)(=O)C1 (stereo not given),i,-1.2
Cc1ccc(OC(=O)C(C)c2cccc(C(=O)c3ccccc3)c2)cc1 (stereo not given),i,-0.11
O=C(Cc1cc(=O)[nH]c(=O)[nH]1)NCCN1CCOCC1,i,1.7
CCCN1CCc2c(sc3nc(SC)n(-c4ccccc4)c(=O)c23)C1,i,0.53
N#Cc1c(-c2ccncc2)c2c([nH]c1=O)-c1ccccc1OC2,i,1.5
CCOc1ccccc1CNC(=O)C1CCN(C(=O)N2CC(C)Oc3ccc(C)cc32)CC1 (stereo not given),i,1.2
COc1cc(C(=O)N/C(=C\c2cn(C)c3ccccc23)C(=O)NCCCO)cc(OC)c1OC,i,-0.64
COC(=O)C(C(=O)OC)c1ncc(C(F)(F)F)cc1Cl,i,-0.22
Cc1ccc(C(=O)c2c3ccc(N)cc3nn2CCC(N)=O)cc1,i,0.15

The list goes on:
SMILES,KCNQ2 inh,KCNQ2 inh baseline
COC(=O)CSc1nc(COc2ccccc2)nc2ccccc12,i,-1.3
Cc1c(Cl)cccc1NC(=O)CCN1CCC(C(N)=O)CC1,i,-0.1
CCOC(=O)Cc1cnc(NC(=O)CSc2nc(C(C)C)cc(=O)[nH]2)s1,i,-0.81
CN1CCN(S(=O)(=O)c2ccc(SCCOc3ccccc3)nc2)CC1,i,1.7
COCCNC(=O)CSc1nc2ccc(N3CCOCC3)cc2c(=O)n1CCc1ccccc1,i,1.1
Cc1ccc(NS(=O)(=O)c2ccc(Cl)c(C(=O)Nc3ccccc3-c3nc4ccccc4[nH]3)c2)cc1C,i,-0.94
O=C(Oc1c(Cl)cc(Cl)c2cccnc12)N1CCOCC1,i,1.8
O=C(COC(=O)/C=C/c1cccc(F)c1)Nc1ncccn1,i,-0.24
Cc1occc1C(=O)Nc1ccccc1C#N,i,-1.6
NS(=O)(=O)c1cccc(NC(=O)CSc2nc3ccccc3n2-c2ccccc2)c1,i,-0.03

Next part
SMILES,KCNQ2 inh,KCNQ2 inh baseline
O=C(NC(Cc1ccccc1)C(=O)O)c1cccnc1Cl (stereo not given),i,0.46
COc1nc(-c2ccccc2)ncc1S(=O)(=O)c1ccccc1,i,0.39
Cn1cc(CCC(=O)N2CCCC(C(=O)c3cccc4ccccc34)C2)cn1 (stereo not given),i,0.8
CCSC1=C(C#N)C(c2cccc(O)c2)CC(=O)N1 (stereo not given),i,0.05
CCC(C)[C@H](NC(=O)N1CCn2c1nc1ccccc12)C(=O)NCCc1ccccc1 (stereo not given in full),i,-0.16
O=C1CCCN1CC(O)CS(=O)(=O)Cc1ccc(Cl)cc1Cl (stereo not given),i,-0.34
Cc1ccc(C(=O)NCCc2nnc3ccc(NCc4ccc5c(c4)OCO5)nn23)cc1,i,0.25
Cc1nnc(SCC(=O)Nc2ccc3c(c2)COC3=O)n1-c1ccccc1,i,-0.09
CC(=O)c1ccc(S(=O)(=O)Nc2ccc(-c3ccc4nnc(C)n4n3)cc2)cc1,i,-0.29
Clc1ccc(-c2cnc3n2CCC3)cc1,i,1.6

(more compounds)
SMILES,KCNQ2 inh,KCNQ2 inh baseline
CC(C)(C)n1c(O)c2ccc(C(=O)N=NC(=O)c3ccccc3)cc2c1O,i,-0.94
O=C(Nc1cc(C(=O)N2CCCC2)ccc1N1CCCC1)c1ccccc1,i,-0.24
CCC(C)Nc1nc2c(c(=O)n(C)c(=O)n2C)n1Cc1ccc(F)cc1 (stereo not given),i,7.7
COc1cc(C(=O)NCC(=O)OCCN2C(=O)c3ccccc3C2=O)cc(OC)c1OC,i,1.3
Cn1c(SCC(=O)NC(C)(C)C)nnc1-c1cccc(NC(=O)c2ccccc2F)c1,i,-0.07
CN(CCOc1ccc(-c2ccn(S(=O)(=O)c3cccc4ccccc34)n2)cc1)c1ccccn1,i,-0.59
CCOC(=O)C1=NN(c2ccccc2)C(=O)C1,i,-1
Clc1ccc(-c2nnn(Cc3nc4ccccc4s3)n2)cc1,i,-0.08
CC(C)N(C(=S)NC1CC2CCC1C2)c1ccccc1 (stereo not given),i,-3.3
Brc1ccc(OCc2cn3ccccc3n2)cc1,i,0.69

(further entries)
SMILES,KCNQ2 inh,KCNQ2 inh baseline
O=[N+]([O-])c1cc2c(cc1/C=N/NS(=O)(=O)c1ccc(Br)cc1)OCO2,i,-1.1
Cc1cccc(C)c1NC(=O)N1CCN(c2nc3ccccc3s2)CC1,i,1.5
Cc1cc(-c2n[nH]c(=S)n2/N=C/c2ccc(Cl)c([N+](=O)[O-])c2)n[nH]1,i,-1.7
CN(C)c1ccc(C2NCC(CCl)O2)cc1 (stereo not given),i,0.4
CCOC(=O)Cc1c(C)nc2c(-c3ccccc3)c(-c3ccccc3)[nH]n2c1=O,i,-0.03
CN(C)S(=O)(=O)Oc1cccc(C(=O)Nc2ccc(Cl)cc2)c1,i,-2.7
COc1ccc2nc(Nc3nc(CSc4nc5ccccc5s4)cc(=O)[nH]3)nc(C)c2c1,i,-0.32
CCN(C(=O)COC(=O)CCc1ccccc1)c1ccccc1,i,1.6
CCc1nnc2cccc(Cl)n12,i,-0.1
Cc1ccc(C(=O)OCCn2cc(C#N)c(=O)[nH]c2=O)cc1,i,2.7

Quoted at random: 2 records from the list, in no set order.
SMILES,KCNQ2 inh,KCNQ2 inh baseline
CCc1nnc2cccc(Cl)n12,i,-0.1
O=[N+]([O-])c1cc2c(cc1/C=N/NS(=O)(=O)c1ccc(Br)cc1)OCO2,i,-1.1

(cont.)
SMILES,KCNQ2 inh,KCNQ2 inh baseline
Cc1cc(NC(=O)CSCC(=O)OC(C)C(=O)c2cc(C)c(C)cc2C)no1 (stereo not given),i,1.1
Nc1cc(=O)[nH]c(=O)n1CC1CC1,i,1.3
O=C(NCCCN1CCCC1)c1ccc2c(c1)N(Cc1ccccc1F)C(=O)c1ccccc1S2(=O)=O,i,0.85
O=C(Nc1cc(Cl)cc(Cl)c1)C(NCCO)c1ccccc1 (stereo not given),i,1.4
O=C(O)C1CCC(CNCc2ccncc2)CC1 (stereo not given),i,0.94
Cc1cc(=O)oc2ccc(OCc3ccccc3)cc12,i,1.2
Cc1ccc(N(CC(=O)N2CCCCCC2)S(=O)(=O)c2ccccc2)cc1,i,-0.33
CCN(CC)S(=O)(=O)c1cc(C(=O)Nc2ccccn2)ccc1C,i,0.76
CC1=C(C(=O)OCC(C)C)C(c2ccsc2)C2=C(CCCC2=O)N1 (stereo not given),i,-0.32
CN(C)CC(C)(C)CNC(=O)c1cc(=O)c2ccccc2o1,i,-0.12

Continuation.
SMILES,KCNQ2 inh,KCNQ2 inh baseline
O=S1(=O)CCOCCCN1Cc1ccc(Cl)cc1,i,-0.48
CCC(=C/c1sc2ccc3ccccc3c2[n+]1C)/C=C1\Sc2ccc3ccccc3c2N1C,i,1.7
COc1ccc(Nc2nc(N(C)c3ccccc3)nc(N)c2[N+](=O)[O-])cc1,i,-0.22
CCOC(=O)c1sc(NC(=O)/C=C/c2ccc(F)cc2)nc1C,i,0.75
N#Cc1ccccc1Sc1ccccc1C(=O)Nc1ccccc1,i,-0.49
O=C(N/N=C/c1ccco1)c1cc([N+](=O)[O-])cc([N+](=O)[O-])c1,i,-0.55
CCN(C(=O)COC(=O)c1cnc(C)cn1)C1CCCCC1,i,-1.8
O=C(O)CC12CC3CC(C1)CC(n1ncc(NCc4ccccc4)c(Cl)c1=O)(C3)C2,i,-0.84

Assay outcomes as filed in PubChem.
